High-throughput results deposited in PubChem by several laboratories.
BJeLR viability = MLPCN primary cell-based screen for lethality selective to Ras in HRASV12 cells | BJeLR (HRASV12) viability, CellTiter-Glo ATP luminescence, 48 h; reference of the scale not given here | inhibition, % (concentration not given with the values) | AID 1554, 2009 | 300,000 tested, 0.17% active;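 active = replicate mean above 50%; inconclusive = above 50% but judged a plate artefact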;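 also: 50 nL library stock added to about 25 µL; numbers are from one replicate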
Mtb hypoxia inh = PubChem AID 1159583 | M. tuberculosis hypoxia-regulated fluorescent reporter, fluorescence | fluorescence inhibition, % (test concentration not listed) | 300,000 tested, 0.1% active;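 active = 35 to 45% if threefold the growth effect, above 45% if 1.5-fold the growth effect; inactive = the rest, general growth blockers included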;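 also: wells of about 50 µL received 100 nL stock; 0% = vehicle wells and 100% = reference inhibitor wells; whole bacteria with a GFP reporter of the hypoxia response; strong numbers were not always called active; many hits fall short of the cut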
Sa RN4220 lethal = growth inhibition of S. aureus RN4220, primary screen, OD600 | 16 h | inhibition, % (test concentration not listed) | 330,000 tested, 0.33% active | AID 1259311, 2017;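 active = z-score of -3 or lower and OD600 up to 0.18 on both plates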;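 also: plate controls were untreated cells for no effect and reference antibiotic for full effect; stock transfer was 100 nL into about 80 µL; one replicate is shown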
Sa ugtP lethal = growth inhibition of ugtP-null S. aureus, primary screen, RN4220 ugtP deletion, OD600; AID 1259309, 2017; 16 h; some inactives read as strong as hits; 330,000 tested, 0.54% active; growth inhibition, % (concentration not given with the values);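 active = z-score under -3 and OD600 up to 0.15 on both plates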;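 also: plate controls were untreated wells for no effect and antibiotic for full effect; wells of about 80 µL received 100 nL stock; the first replicate is given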
Bead autofluor = compound fluorescence in toxin protease inhibitor counterscreen; compound autofluorescence counterscreen, microsphere flow cytometry; active compounds read high; fluorescence intensity (concentration not given with the values); 360,000 tested, 3.1% active;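 active = at least 3 SD above the mean of all compounds, about 16000 in these data; inconclusive = too few beads counted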;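 also: 100 nL of 1 mM stock went into each well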
PrP UTR inh = inhibition of PrP 5' UTR reporter expression. cell-based PrP 5' UTR mRNA reporter, plate reader. inhibition, % (no concentration beside the values). 340,000 tested, 0.35% active;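 active = every replicate at 50% or more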;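 also: 0 = median of the neutral control wells; tested in H4 reporter cells; numbers are from one replicate; inactives centre near -14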
Mtb hypoxia inh growth = recorded beside Mtb hypoxia inh, whose call it bears; growth inhibition, %; measured here: M. tuberculosis growth (absorbance);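 0% = vehicle and 100% = reference antibiotic; read after six days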
* = called active by the depositor; u = inconclusive; x = not tested or not shown.

The opening three compounds, to show the layout:
| compound | BJeLR viability | Mtb hypoxia inh | Mtb hypoxia inh growth | Sa RN4220 lethal | Sa ugtP lethal | Bead autofluor | PrP UTR inh |
| --- | --- | --- | --- | --- | --- | --- | --- |
| CC(C)(C)C1C=C(C(=O)N2CCN(Cc3ccc4c(c3)OCO4)CC2)OC(OCCCCO)C1 (configuration not stated) | x | 5.8 | 3.1 | 6.0 | -4.3 | x | x |
| NC(=O)C1CCCN(CC(=O)Nc2ccccc2C(=O)NC2CC2)C1 (configuration not stated) | x | 10.6 | 3.8 | 1.6 | -0.2 | 3832 | -15.5 |
| Cc1cc(NC(=O)C(C)Oc2ccccc2)no1 (configuration not stated) | -5.7 | 3.7 | -0.3 | 0.5 | 5.8 | 3061 | -20.8 |

Main list, from the first entry:
| compound | BJeLR viability | Mtb hypoxia inh | Mtb hypoxia inh growth | Sa RN4220 lethal | Sa ugtP lethal | Bead autofluor | PrP UTR inh |
| --- | --- | --- | --- | --- | --- | --- | --- |
| CC(C)(C)C1C=C(C(=O)N2CCN(Cc3ccc4c(c3)OCO4)CC2)OC(OCCCCO)C1 (configuration not stated) | x | 5.8 | 3.1 | 6.0 | -4.3 | x | x |
| NC(=O)C1CCCN(CC(=O)Nc2ccccc2C(=O)NC2CC2)C1 (configuration not stated) | x | 10.6 | 3.8 | 1.6 | -0.2 | 3832 | -15.5 |
| Cc1cc(NC(=O)C(C)Oc2ccccc2)no1 (configuration not stated) | -5.7 | 3.7 | -0.3 | 0.5 | 5.8 | 3061 | -20.8 |
| COc1ccc(/C(C)=N/NS(=O)(=O)c2ccccc2)c(OC)c1 | 2.8 | x | x | x | x | 2585 | -22.0 |
| CCC1=C(OC(=O)N(CC)CC)N2C(=O)OC(=NCC3CC3)[C@]2(Cc2ccccc2)C2C1=CCC1C(=O)N(C)C(=O)C12 (some centres not stated) | x | 6.1 | 13.9 | 8.9 | 3.8 | x | x |
| CN1CCC(=O)N([C@H](CC#N)c2ccccc2)CC1 | 0.8 | x | x | x | x | 3031 | -13.4 |
| CCOc1cc(C#N)c(NC(=O)c2cccnc2Cl)cc1OCC | -0.8 | 0.6 | 6.1 | 2.4 | 0.8 | 4000 | -22.0 |
| O=C(NNC(=O)c1ccc2c(c1)OCO2)NC12CC3CC(CC(C3)C1)C2 | 2.5 | 16.3 | 1.0 | 6.2 | 4.8 | 2112 | -20.9 |
| Cc1ccc(-c2nn3c(C)nnc3s2)cc1NC(=O)CSc1ccc(Cl)cc1 | 8.8 | 2.5 | 3.2 | 2.2 | -8.9 | 11028 | 17.7 |
| CSc1ccc(C(c2c(C(=O)O)[nH]c3ccccc23)c2c(C(=O)O)[nH]c3ccccc23)cc1 | 1.0 | -4.1 | 8.0 | 29.8 | -12.2 | 3399 | 3.7 |
| CCOC(=O)c1c(-c2ccc(OCC)cc2)csc1NC(=O)CCN1C(=O)c2ccccc2C1=O | -1.9 | -8.5 | -3.1 | 6.3 | 10.5 | x | x |
| Cc1nc2cc(-c3ccsc3-n3c(C)ccc3C)[nH]n2c(=O)c1Cl | 1.6 | x | x | x | x | 3084 | -16.9 |
| CC(C)OC(=O)c1ccc(COC(=O)c2cccc(-c3nnc(-c4ccccc4)o3)c2)cc1 | 1.2 | 4.6 | 4.5 | 4.6 | -6.4 | 1959 | -34.5 |
| NC(=O)CC(NC(=O)Cc1cccc2ccccc12)c1ccc(N2CCCCCC2)c([N+](=O)[O-])c1 (configuration not stated) | -5.4 | 15.5 | 1.7 | -2.5 | 7.0 | 3888 | -26.4 |
| O=C(COC(=O)Cc1c(F)cccc1Cl)NC1CCS(=O)(=O)C1 (configuration not stated) | -9.3 | -0.6 | -7.9 | 6.8 | 12.2 | 4631 | -0.6 |
| O=C(NCc1ccccc1)C(c1ccncc1)N(C(=O)c1csnn1)c1ccccc1F (configuration not stated) | -6.6 | -8.7 | 9.6 | 0.7 | -4.6 | 3633 | 4.8 |
| COc1ccc(CNc2nc(NC(C)=O)nn2-c2ccccc2)cc1 | 27.4 | -2.3 | -6.9 | 2.3 | 0.6 | 3572 | -2.1 |
| COc1cc(NC(=S)Nc2cccc(C)n2)cc(OC)c1OC | -8.7 | 11.3 | -1.4 | -1.8 | 2.9 | 2475 | -3.9 |
| COc1ccc(N2CCN(C(=O)c3oc4ccccc4c3NC(=O)CCc3cc(OC)no3)CC2)cc1 | 1.5 | 1.4 | 1.0 | 5.8 | 7.0 | 5622 | 0.9 |
| CCOC(=O)Cc1csc(NC(=O)CSc2nc(C)cc(=O)[nH]2)n1 | 0.7 | 14.9 | 5.0 | -1.1 | 13.0 | 4125 | -15.8 |
| CCOc1ccccc1NC(=O)Cc1ccccc1OC | -6.4 | x | x | 5.1 | 6.0 | 4034 | -19.7 |
| CCN(CC(=O)Nc1cccc(S(N)(=O)=O)c1)Cc1nc2ccccc2c(=O)[nH]1 | -2.1 | 4.0 | -5.4 | 1.5 | -1.9 | 4043 | -18.0 |
| Oc1c(Br)cc(Br)cc1CNc1ccc(F)cc1 | -4.2 | -2.9 | 1.5 | 20.5 | -14.0 | 2212 | -16.6 |
| CCCc1nn(C)c2c(=O)[nH]c(-c3ccccc3OCC)nc12 | 9.6 | 12.0 | 7.9 | 6.8 | 5.1 | 8980 | -27.9 |
| O=C(Cn1ncc2c(=O)oc3ccccc3c21)NC1CC1 | -12.6 | x | x | 15.7 | 9.6 | 2329 | 7.4 |
| NC(=O)c1cccnc1Nc1ccccc1F | 4.8 | 15.2 | 5.9 | 1.3 | 0.6 | 2134 | -18.6 |
| CC(=O)c1c(C)[nH]c(C(=O)Nc2cccc(C)c2C)c1C | -7.7 | 5.9 | -3.8 | 4.8 | -5.3 | 2865 | -23.9 |
| CCCCNC(=O)C1CCCN(S(=O)(=O)c2ccc(S(=O)(=O)NCC(C)C)cc2)C1 (configuration not stated) | -0.4 | -0.1 | 2.2 | 3.1 | -0.8 | 10196 | -33.4 |
| C=CCNc1nc2c(c(=O)[nH]c(=O)n2C)n1CCCc1ccccc1 | -4.7 | x | x | x | x | 4401 | 11.9 |
| Cc1cc(Nc2ccccc2)n(C(=O)c2ccc(Cl)cc2)n1 | -3.7 | 1.7 | 1.3 | -2.2 | 65.8 | 10548 | -19.5 |
| COc1ccc(C(=O)N2CCN(Cc3cc(OC)ccc3OC)CC2)cc1 | -2.9 | 5.2 | 0.0 | 6.0 | 5.9 | 4285 | -18.8 |
| Cc1ccc(S(=O)(=O)n2nnc3ccccc32)c(C)c1C | -1.6 | -7.1 | -6.9 | 3.0 | 1.7 | 4820 | 0.6 |
| O=C(c1ccc(CN2CCc3ccccc3C2)cc1)N1CCCCC1 | 3.2 | 1.5 | 5.8 | 3.2 | -5.6 | 3107 | -19.8 |
| CNC(=S)NN=C(C)c1ccc(C)c(C)c1 | x | 3.7 | 9.7 | 2.3 | 3.0 | x | x |
| N/C(=N\OC(=O)c1ccccc1)c1cccnc1 | -4.2 | 6.7 | -1.0 | -1.3 | -5.7 | 1996 | -1.5 |
| O=C(COC(=O)CNC(=O)c1ccccc1F)Nc1ncc(Cl)cc1Cl | x | 5.0 | -3.2 | 2.8 | -6.0 | 3372 | -23.2 |
| COc1ccc(C2c3ccc4ccccc4c3Oc3ncn(CCCO)c(=N)c32)cc1OC (configuration not stated) | 5.3 | x | x | x | x | u | -15.9 |
| CC(=O)N=C1C=CC(=CN(O)C(C)(C)Cc2ccccc2)C=C1 | -1.5 | 19.0 | 10.0 | 6.0 | 1.6 | 2853 | -4.9 |
| O=C(NCc1cccs1)c1cc2ccccc2o1 | -2.0 | x | x | 2.2 | -5.0 | 5274 | -40.8 |
| CC1=C(C(=O)c2ccccc2)C(c2cn(-c3ccccc3)nc2-c2ccc(Cl)cc2)NC(=S)N1 (configuration not stated) | -21.0 | 13.8 | 9.7 | -1.4 | -12.5 | 19559* | -8.6 |
| COc1ccc(C(=O)Nc2cc3c(cc2C#N)OCO3)cc1S(=O)(=O)NCc1ccco1 | 2.2 | x | x | -4.6 | 11.2 | 4101 | -11.2 |
| COc1ccc(C2CN=NC23CCCc2ccccc2C3=O)cc1 (configuration not stated) | 3.0 | 20.1 | 14.4 | 3.6 | -0.1 | 4171 | -15.4 |
| CCOC(=O)[C@@H]1[C@H]2COc3cc(OC)ccc3[C@@H]2N2C(=O)N(c3ccc(Cl)cc3)C(=O)[C@@]12C | 8.3 | x | x | x | x | 4113 | -17.8 |
| CCCc1cc(=O)oc2cc(C)cc(OC(C)C(=O)NCC(O)c3ccccc3)c12 (configuration not stated) | -5.9 | 7.6 | 2.4 | 2.5 | 0.6 | 5079 | -15.6 |
| Cc1nc2nc(C)c(NS(=O)(=O)c3ccc(CC(C)C)cc3)c(=O)n2[nH]1 | -2.5 | 6.0 | 2.6 | 2.9 | 8.6 | 2850 | -19.6 |
| COc1ccc(CNCCCSc2ncccn2)c(OC)c1 | 1.7 | 10.0 | 1.5 | 0.3 | -2.1 | 4495 | -7.9 |
| CC(C)Oc1ccc(C(=O)N2CCN(C(=O)c3ccco3)CC2)cc1 | -5.4 | 6.8 | 11.2 | 0.6 | 3.5 | 5401 | -17.0 |
| CCOc1cccc(/C=N/N2CCN(c3ccc(Cl)cc3)CC2)c1O | 2.9 | x | x | x | x | 3826 | -24.7 |
| CCOC(=O)c1ccc(-c2nnc(-c3ccc(Cl)cc3Cl)o2)cc1 | 3.5 | 8.2 | 13.7 | 10.8 | -0.7 | 15730 | -19.4 |
| COC(=O)[C@@H](Cc1ccccc1)NC(=O)NCCc1c[nH]c2ccccc12 | -1.5 | 8.5 | -2.0 | -2.5 | 14.4 | 4184 | -7.0 |
| CCCn1c(CCc2ccccc2)nnc1SCC(=O)N1CCCC1 | -5.0 | x | x | 3.8 | 1.6 | 4057 | -16.8 |
| COC(=O)C1CCN(C(=O)/C=C/c2ccc(OC)cc2)CC1 | -4.8 | -2.8 | 6.7 | 2.9 | -5.4 | u | -61.2 |
| CN(Cc1cc([N+](=O)[O-])ccc1Cl)C(=O)C[n+]1ccccc1 | 5.1 | 5.5 | -2.0 | -1.8 | 13.3 | 3701 | -20.9 |
| CN(Cc1cnccn1)C(=O)c1cc(COc2cccc(C(F)(F)F)c2)on1 | -4.8 | 4.2 | -1.0 | 4.8 | 9.8 | 5341 | -17.1 |
| COc1cccc(NC(=O)CNS(=O)(=O)c2ccc3nc(C)sc3c2)c1 | 1.9 | 2.2 | 13.6 | -16.8 | -10.6 | 2945 | -24.8 |
| CCCN(CCC)Cc1c(C(=O)NN=Cc2cccs2)nnn1-c1nonc1N | x | -6.7 | -0.3 | 1.3 | 7.3 | x | x |
| CCOC(=O)N1CCC(N2C(=O)c3ccc(C(=O)Nc4ccc(OC)c(OC)c4)cc3C2=O)CC1 | 1.7 | 2.6 | -6.0 | -3.2 | 16.4 | 5941 | 2.3 |
| Cc1ccc(-c2nc(Cl)nc3ccccc23)cc1 | -4.1 | 9.6 | -3.3 | 3.2 | 15.4 | 4522 | 2.0 |
| c1ccc(CCN2CCC3(CC2)OCCO3)cc1 | -14.6 | -11.7 | 4.0 | 1.8 | 3.4 | 4185 | -3.9 |
| O=S(=O)(Nn1cnnc1)c1ccc2ccccc2c1 | -3.2 | 12.4 | 1.5 | 5.6 | 10.9 | 2276 | -10.1 |

Next part
| compound | BJeLR viability | Mtb hypoxia inh | Mtb hypoxia inh growth | Sa RN4220 lethal | Sa ugtP lethal | Bead autofluor | PrP UTR inh |
| --- | --- | --- | --- | --- | --- | --- | --- |
| COC(=O)c1ccc(/C=N/Nc2nc(-c3ccccc3)cs2)cc1 | -0.2 | x | x | x | x | 10916 | -22.5 |
| CC(c1ccccc1)N1CCc2[nH]c(=S)[nH]c(=O)c2C1 (configuration not stated) | 4.6 | -2.8 | 2.0 | -3.9 | 0.6 | 2601 | -27.9 |
| COC(=O)C1=C(c2ccc(OC)c(OC)c2)CC2CCC1N2C(=O)NCc1ccco1 (configuration not stated) | x | 6.0 | 8.2 | 3.0 | -2.0 | x | x |
| CCOc1ccc(C(=O)Nc2nnn(CC)n2)cc1 | -5.6 | 9.2 | 8.2 | -1.1 | 3.0 | 4070 | -87.1 |
| Cc1noc(/C=C/N(C)C)c1S(=O)(=O)N(C)CC(=O)NC1CCCCC1 | 4.3 | x | x | 1.4 | 1.4 | 2049 | -9.0 |
| c1ccc2oc(-c3ccc(Nc4nc(N5CCCCC5)nc(N5CCOCC5)n4)cc3)nc2c1 | 7.0 | 1.6 | 4.6 | 0.4 | 32.8 | x | x |
| CCOC(=O)C1=C(C)NC(=O)CC1c1cc2c(cc1[N+](=O)[O-])OCO2 (configuration not stated) | 4.4 | 5.6 | -4.9 | 7.6 | 4.4 | 4433 | -21.8 |
